Compound activity (PubChem BioAssay)
Rango complex inh: inhibitors of Rango-importin beta complex formation; Rango CFP/YFP FRET sensor + importin beta, 45 min; Potency, µM (doses to about 92.2 µM), for inactives: at the top dose inhibition of complex formation; 340,000 compounds, 0.031% hits; active = rising FRET ratio curve, often small or poorly fitted; inconclusive = mostly compound fluorescence or quenching in the first reads; inactive = flat curves in all reads;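 also: potency is read from the fitted curve at half-maximal effect; 0% = DMSO wells and 100% = buffer wells lacking importin beta; nearly all actives have a fitted effect of over 15% in size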
Target sequence (Q14974 whole entry, looked up): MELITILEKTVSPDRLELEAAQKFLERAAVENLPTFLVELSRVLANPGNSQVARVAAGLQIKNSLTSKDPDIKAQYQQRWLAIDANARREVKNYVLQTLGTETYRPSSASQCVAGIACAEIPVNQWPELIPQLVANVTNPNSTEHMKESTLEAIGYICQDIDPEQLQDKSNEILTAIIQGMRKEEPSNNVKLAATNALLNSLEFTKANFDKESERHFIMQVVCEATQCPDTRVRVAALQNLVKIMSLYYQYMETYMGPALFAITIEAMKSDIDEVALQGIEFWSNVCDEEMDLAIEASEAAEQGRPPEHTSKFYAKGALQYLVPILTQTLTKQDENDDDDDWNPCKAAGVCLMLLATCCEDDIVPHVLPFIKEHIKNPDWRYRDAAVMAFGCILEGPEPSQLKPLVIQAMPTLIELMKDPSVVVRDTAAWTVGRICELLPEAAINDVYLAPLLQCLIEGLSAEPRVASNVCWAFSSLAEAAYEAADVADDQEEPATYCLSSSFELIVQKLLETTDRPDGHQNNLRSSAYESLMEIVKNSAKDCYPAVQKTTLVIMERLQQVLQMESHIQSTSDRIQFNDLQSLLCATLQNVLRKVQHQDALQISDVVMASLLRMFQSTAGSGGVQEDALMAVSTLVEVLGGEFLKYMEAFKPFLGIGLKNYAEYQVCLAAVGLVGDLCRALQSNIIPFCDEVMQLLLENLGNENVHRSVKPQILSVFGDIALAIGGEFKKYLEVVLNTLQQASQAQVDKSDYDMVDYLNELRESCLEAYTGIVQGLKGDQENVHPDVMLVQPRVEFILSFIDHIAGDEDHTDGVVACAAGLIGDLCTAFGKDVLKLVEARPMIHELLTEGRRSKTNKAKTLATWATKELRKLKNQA
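Inhibition scored from the CFP 486 nm/YFP 530 nm FRET ratio 45 min after adding 0.125 microM importin beta to 50 nM Rango biosensor preincubated 5 min with compound (room temperature, PBS with DTT, Tween-20, BSA). No-importin wells as positive control.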
Rango release inh: inhibition of RanGTP-driven Rango-importin beta dissociation; O95149+P62826; Biochemical FRET Rango-importin beta, RanGTP-induced dissociation; Potency, µM (top dose mostly 46.1 µM), without a hit: at the highest dose activity change, negative = inhibition; 340,000 compounds, 0.071% hits; AID 540253; active means falling FRET ratio curve, often poorly fitted, with flat reads before Ran was added; inconclusive means other falling curves, or compound fluorescence or quenching; inactive means flat or rising ratio curve;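 also: potency is read from the fitted curve at half-maximal effect; % of control where 0% means no effect; nearly all actives have a fitted effect of over 45% in size; -100% = wells without RanGTP and RCC1; the record marks most hits as doubtful in a second field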
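Recombinant Rango FRET biosensor (EYFP–snurportin 1 IBB–cerulean CFP10) at 0.1 uM premixed with 0.25 uM importin beta in PBS, 1 mM DTT, 0.02% Tween-20, 0.1% BSA. Compound added 5 min; RanGTP-RCC1 (0.6 uM Ran, 2 mM GTP, 0.2 uM RCC1) then triggers release, read at 45 min.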
GLA inh pH 4.5: blocks human alpha-galactosidase A at pH 4.5; P06280; purified enzyme, 4-MU-alpha-Gal fluorescence, pH 4.5; activity change, negative = inhibition, % at 105 µM; 230,000 tested, under 10 active; AID 1467; inconclusive = small, poorly fitted or top-dose-only inhibition, or a rising curve; inactive = flat fitted curve, though single readings scatter; no compound was filed as active;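 also: 0% = full activity with enzyme and -100% = basal without enzyme; dose as in the result columns while the protocol names 77 µM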
miR-21 FLuc: miR-21 reporter, rising signal; HeLa miR-21 FLuc reporter, luciferase, 48 h; Potency, µM (highest dose often 38.3 µM), without a hit: at the highest dose reporter change, positive = more light; 340,000 tested, under 10 active; AID 2288; active = well fitted rising curve with a large enough effect; inconclusive = small, poorly fitted or top-dose-only effect; inactive = no such curve, though single readings can be large or run the other way;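 also: % of control where 0% means no effect; miR-21 action dims this reporter so a rising signal means less miR-21 action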
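Using DMEM plus 10% FBS, HeLa miR-21-FLuc cells are incubated with test compounds (final up to about 40uM) for 48 hours; firefly luciferase signal is then imaged following reagent-mediated lysis.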
* = called active by the depositor; ? = inconclusive; · = no result given; [ ] = remark or other dose. A portion of the library. The share of hits here may be higher or lower than overall.

Sequence of screens – Rango complex inh, Rango release inh, GLA inh pH 4.5, miR-21 FLuc
> Cc1cccc(N2CCN(c3ccc(NC(=O)/C=C(/C(=O)O)c4ccccc4)cc3)CC2)c1
    -0.1%, 20.3%, 1.0, -0.9%
> CCOC(=O)c1cccc(NC(=O)c2ccco2)c1
    0.5%, 1.7%, 6.9, -22.2%
> CC(O)CNc1ccc(-c2n[nH]c(=O)c3ccccc23)cc1[N+](=O)[O-] (configuration not stated)
    4.3%, -19.7%, ·, -14.5%
> COc1ccccc1-c1cc(C(F)(F)F)c(C#N)c(=O)[nH]1
    1.4%, -14.6%, 24.7, 4.2%
> Nc1cccc(-c2csc(-n3ncc(C(=O)O)c3C(F)(F)F)n2)c1
    -4.8%, 11.4%, ·, -13.3%
> COc1cccc(CN(C)C(=O)c2ccc(OCC(=O)N3CCOCC3)c(OC)c2)c1
    -0.6%, 1.4%, ·, ·
> COC(=O)c1sc2nc(CN3CCOCC3)nc(N3CCOCC3)c2c1C
    -1.5%, 1.0%, -3.0, -4.8%
> Cc1cc(C)nc(SCc2nnc(SCC(=O)Nc3ccc(C)c(C)c3)o2)n1
    ?, 1.0%, -3.4, -2.2%
> CCOC(=O)CSC1=C(C#N)C(=O)NC(c2ccc(OC)c(OC)c2)S1 (configuration not stated)
    4.0%, 2.3%, -2.9, -3.9%
> COc1ccc(-c2nnc(SC)o2)c(OC)c1
    -1.1%, -13.0%, 1.3, -41.7%
> O=C(c1ccc(Cl)nc1)N1CCN(S(=O)(=O)c2ccc(Cl)cc2)CC1
    0.9%, -14.3%, -5.3, -1.5%
> CCC1S/C(=N/N=C/c2ccco2)N(Cc2ccccc2)C1=O (configuration not stated)
    -1.9%, 0.6%, -6.7, 10.8%
> COc1ccc(CC(=O)NCC2COc3ccccc3O2)cc1 (configuration not stated)
    4.3%, -10.6%, 5.9, -10.4%
> Cc1ccccc1N1C(=O)c2cccc([N+](=O)[O-])c2C1=O
    -3.0%, 5.8%, 5.2, -6.6%
> COc1ccc(C2C(C(=O)NCc3cccnc3)c3cc(OC)c(OC)cc3C(=O)N2C)cc1 (configuration not stated)
    0.4%, 0.6%, 4.3, -5.7%

Following part
Sequence of screens – Rango complex inh, Rango release inh, GLA inh pH 4.5, miR-21 FLuc
> CCc1ccccc1N(CC(=O)N1CCCC1)S(C)(=O)=O
    0.4%, -9.8%, ·, 0.1%
> COc1cccc(OC)c1C(=O)OCCCOC(=O)c1c(OC)cccc1OC
    -0.7%, 15.2%, ·, -1.7%
> CC1CN(CCCOc2ccccc2[N+](=O)[O-])CC(C)O1 (configuration not stated)
    2.7%, 3.3%, 9.7, -9.6%
> COc1ccc(CCN(C)c2ncnc3sccc23)cc1OC
    3.4%, -7.3%, -2.3, 11.4%
> Cc1cc(C(=O)NCCc2ccc(Cl)cc2)c(C)o1
    3.8%, -17.4%, ·, -54.4%
> COc1ccc(CCN2C(=O)C=CC2=O)cc1OC
    5.9%, 3.2%, ·, ·
> CCN(CC(=O)Nc1ccccc1C(F)(F)F)C(=O)COc1cccc2c1OC(C)(C)C2
    2.4%, -0.3%, ·, ·
> O=C(CCN1CCCC1)Nc1ccc(Br)cc1
    1.7%, 0.4%, -7.5, -5.1%
> C[C@H](NC(=O)c1nc[nH]c1C(=O)N(C)Cc1ccccc1)c1ccccc1
    0.9%, -12.3%, ·, ·
> O=C(CCNS(=O)(=O)c1ccccc1F)N1CCN(C/C=C/c2ccccc2)CC1
    -0.3%, -1.7%, ·, ·
> CCOC(=O)N1CCN(C(=O)COc2ccc(S(=O)(=O)NC3CCCCC3)cc2C)CC1
    6.6%, -0.3%, -2.7, 18.5%
> CCN(Cc1ccccc1)S(=O)(=O)c1ccc2c(c1)NC(=O)CC(=O)N2
    -3.0%, -4.9%, 5.6[21.1 µM], 6.2%
> CCc1ccc(OC(=O)Nc2ccccc2)cc1
    -2.8%, 0.6%, ·, -14.9%
> Cc1ccc(NC(=O)CN(C)C(=O)c2cc(S(=O)(=O)N(C)C)ccc2N2CCCC2)cc1
    -3.0%, 8.8%, ·, ·
> Clc1cccc(-c2nc(NCc3cccnc3)c3ccccc3n2)c1
    -2.2%, -5.6%, -8.4, -0.5%

New compounds follow:
Sequence of screens – Rango complex inh, Rango release inh, GLA inh pH 4.5, miR-21 FLuc
> C=CCOc1c(CNc2ccc(C(=O)O)cc2)cccc1OCC
    1.1%, 6.6%, -12.6, -56.9%
> O=C(NN=C(Cc1ccccc1)Cc1ccccc1)c1ccc(F)cc1
    -0.1%, -25.6%, -7.4, -37.7%
> C[C@]12c3[nH]c4ccccc4c3CCN1C(=O)C(CC(=O)NCC13CC4CC(CC(C4)C1)C3)C[C@@H]2C(=O)N1CCCCC1 (some centres not stated)
    -0.6%, 0.9%, ·, ·
> CC(NS(=O)(=O)c1ccccc1)C(=O)Nc1ccc2c(c1)OCCO2 (configuration not stated)
    -1.7%, -8.8%, ·, -16.7%
> CC(=O)Nc1ccc(S(=O)(=O)NC2(C(F)(F)F)C(=O)Nc3c2c(=O)[nH]c(=O)n3Cc2ccccc2)cc1 (configuration not stated)
    -3.7%, 5.2%, -6.9, -1.7%
> CCN1C(=O)c2ccccc2Sc2ccc(C(=O)NCCCN3CCOCC3)cc21
    0.2%, 25.3%, 7.5[21.1 µM], -0.6%
> COc1ccc(-n2c(C)c(C)c3c(NCCN(C)C)ncnc32)cc1
    -3.2%, 0.9%, ·, 0.3%
> CCC1CCC2(CC1)NNC(=S)NN2
    1.2%, 0.4%, 4.1, -4.8%
> CC(=O)N1CCN=C1SCc1ccc(F)cc1
    1.6%, 3.1%, ?, -10.9%
> COc1ccc(N(CC(=O)NCc2cccs2)S(=O)(=O)c2c(C)n[nH]c2C)cc1
    -2.1%, 0.5%, 5.2, -4.0%
> O=C(CSc1nc2ncccc2[nH]1)Nc1ccccc1-c1ccccc1
    -0.4%, -15.0%, ·, 1.2%
> Cc1ccccc1CCN1CCCC(CN(C)C(=O)c2ccc3ncccc3c2)C1 (configuration not stated)
    -1.7%, 1.1%, ·, -10.7%
> COc1cccc(-n2cnnc2SCC(=O)NC2CC2)c1
    2.9%, -10.9%, ·, ·
> COc1ccc(NC(=O)Nc2cccc(F)c2)c(OC)c1
    -1.1%, 3.6%, -3.9, -36.7%
> COc1ccccc1NC1SC(=O)N(c2ccccc2)C1=O (configuration not stated)
    0.8%, -21.6%, 4.5, -17.9%

Some entries already given, showing only GLA inh pH 4.5 and miR-21 FLuc:
| compound | GLA inh pH 4.5 | miR-21 FLuc |
| --- | --- | --- |
| Cc1ccccc1CCN1CCCC(CN(C)C(=O)c2ccc3ncccc3c2)C1 (configuration not stated) | · | -10.7% |
| O=C(NN=C(Cc1ccccc1)Cc1ccccc1)c1ccc(F)cc1 | -7.4 | -37.7% |

Continuation:
Sequence of screens – Rango complex inh, Rango release inh, GLA inh pH 4.5, miR-21 FLuc
> CC12CCC3C(CCC4CC(O)CCC43C)C1CC(O)C2 (configuration not stated)
    -0.5%, -9.0%, ·, ·
> CCN1C(=O)[C@@H]2[C@@H](c3ccc(-c4ccc(Cl)c(Cl)c4)cc3)N3CCCC[C@@]3(C(=O)OC)[C@@H]2C1=O
    -3.9%, -11.8%, ·, ·
> Cn1c(NC(=O)c2ccccc2)c(-c2ccccn2)c(=O)c2ccccc21
    -1.7%, 0.5%, 0.7, 1.8%
> C=CCn1c(Sc2nncn2C)nc2c1c(=O)[nH]c(=O)n2C
    0.0%, 6.6%, 0.1, -2.4%
> O=C(CN1CSCC1=O)N1CCN(S(=O)(=O)c2cc(C(F)(F)F)ccc2Cl)CC1
    4.5%, -11.2%, ·, ·
> COc1ccccc1N1CCN(CCCNc2c(C)c(=O)n(C)c(=O)n2C)CC1
    -0.6%, -1.6%, -2.1, ·
> CS(=O)(=O)c1ccc2sc(NC(=O)c3cc4ccccc4o3)nc2c1
    -0.1%, 16.8%, 0.2, -16.6%
> Cc1ccccc1C1CC(c2ccccc2)Nc2ncnn21 (configuration not stated)
    -2.0%, -1.6%, 2.9, 9.3%
> COc1ccc(NC(=S)NNC(=O)C2CC2c2ccc(C)cc2)cc1 (configuration not stated)
    -1.7%, -5.7%, 2.3, -9.8%
> Fc1cccc(-c2n[nH]c(=S)n2-c2ccccc2)c1
    2.2%, -4.4%, ·, -11.0%
> Cc1ccc(S(=O)(=O)N2CCCCC2)cc1NC(=O)COC(=O)Cc1cccc(C(F)(F)F)c1
    -2.1%, -7.8%, -15.7, -0.9%
> Cc1c(Cl)ccc2c(C(=O)Nc3cc(C(C)(C)C)on3)cc(-c3ccccn3)nc12
    -2.2%, -12.2%, ·, -5.1%
> C=CCOc1c(Cl)cc(Cl)cc1S(=O)(=O)NCCO
    1.3%, 17.4%, ·, ·
> OC1CCCCC1
    -0.6%, 0.6%, ·, ·
> COc1ccc(NC(=O)CN2CC(c3ccccc3)CC2=O)cc1OC (configuration not stated)
    0.5%, -13.6%, 1.2, -7.1%

Further entries follow:
Sequence of screens – Rango complex inh, Rango release inh, GLA inh pH 4.5, miR-21 FLuc
> COc1ccc(C2C(C(C)=O)=C(O)C(=O)N2c2ccc(C)cc2)cc1 (configuration not stated)
    3.5%, 0.8%, ·, -17.0%
> CCn1cc(C(=O)Nc2cccc(C(=O)OC)c2)c(=O)c2ccc(C)nc21
    -2.3%, -1.7%, -0.1, -0.2%
> COc1cccc(C(=O)COC(=O)c2n[nH]c(=O)c3ccccc23)c1
    -2.2%, 1.7%, -13.1, -1.7%
> COc1ccc(CCN(C)C(=O)COc2ccc(C(=O)c3ccccc3)cc2)cc1OC
    -1.0%, -9.4%, ·, ·
> COc1ccc(COCC(O)CN2CCc3ccccc3C2)cc1OC (configuration not stated)
    -5.9%, -19.9%, 6.0, -2.0%
> COc1ccc(C(C(=O)NCC2CCCO2)N(Cc2ccc(F)cc2)C(=O)CNC(=O)c2ccco2)cc1OC (configuration not stated)
    1.9%, 7.7%, ·, -0.8%
> O=C(NC1CCCCCC1)C1CC(=O)N(c2ccc(Cl)cc2)C1 (configuration not stated)
    -2.4%, 1.5%, ·, 1.5%
> O=C(NCCN1CCOCC1)c1cc(S(=O)(=O)NCCCN2CCCC2=O)ccc1Cl
    -2.2%, 5.6%, -2.0, -6.5%
> CCCc1cc(C(=O)Nc2sc(C)c(C)c2C(=O)OCC)no1
    -0.7%, -4.2%, 19.9, -1.8%
> NC(=O)C1CCN(C(=O)C2CCC(=O)N(CC3CCCCC3)C2)CC1 (configuration not stated)
    6.1%, -3.2%, ·, -0.3%
> CC(C)CNC(=O)c1ccc(NC(=O)c2cccs2)cc1
    4.7%, 21.1%, 0.8, -38.3%
> CC(C)C(CC(=O)N1CCCCC1)C1CCOC(C)(C)C1 (configuration not stated)
    1.3%, 26.0%, 6.0, -3.7%
> CC(=O)Nc1ccc(Nc2nc(-c3sc(C)nc3C)cs2)cc1
    1.2%, -14.4%, ·, -0.9%
> O=C(OCC(=O)N(CCc1ccccc1)Cc1ccccc1)c1ccccc1NCCO
    ?, 0.2%, ·, 4.8%
> COc1cc(/C=N/Nc2nc3ccccc3s2)ccc1OC(=O)c1ccccc1F
    -8.3%, 31.2%, -0.8, -57.7%

Additional structures.
Sequence of screens – Rango complex inh, Rango release inh, GLA inh pH 4.5, miR-21 FLuc
> O=C(Nc1ccc(Br)cc1)C1OCCc2ccccc21 (configuration not stated)
    -0.3%, -4.4%, 0.6, -36.6%
> O=C(O)CCCC(=O)N1CCc2cc(S(=O)(=O)NCc3ccc(F)cc3)ccc21
    -0.2%, -1.1%, 5.4, 1.8%
> O=C(NCCc1ccccc1)C1(S(=O)(=O)c2ccc(Cl)cc2)CC1
    0.1%, -2.0%, ·, 0.3%
> CC(Sc1nc(N)c2c3c(sc2n1)CSC(C)(C)C3)C(=O)Nc1ccccc1 (configuration not stated)
    0.1%, -0.8%, -0.2, 9.8%
> COc1ccc(C(=O)C(O)C(c2ccc(C)cc2)N2CCOCC2)cc1OC (configuration not stated)
    7.7%, 2.1%, ·, -0.3%
> O=C1CC(N2CCCc3ccccc32)C(=O)N1c1ccccc1Cl (configuration not stated)
    2.7%, 1.4%, 2.1, -7.2%
